Assay outcomes as filed in PubChem.
Lassa entry inh = qHTS for Inhibitors of binding or entry into cells for Lassa Virus. Lassa virus pseudotype entry inhibition, cell reporter; control for the full effect not named in the record. 300,000 compounds, 1.2% hits. Potency, µM (series often up to 37.9 µM), without a hit: at the highest dose activity change, negative = inhibition, usual class: inhibitors; active means well fitted inhibition curve with a large enough effect; inconclusive means small, poorly fitted or top-dose-only effect, or effect the other way; inactive means flat fitted curve, though single readings scatter; tested in HEK293 cells; also: % is scaled to controls: 0 for no effect and ±100 for the full control effect; nearly all actives have a fitted effect of over 50% in size; luciferase read-out
NS1 function inh = qHTS Assay for Inhibitors of Influenza NS1 Protein Function. S. cerevisiae slowed by influenza A NS1, growth recovery by OD600. Potency, µM (highest dose often 46.1 µM), without a hit: at the top dose activity, positive = more growth. 270,000 compounds, 0.4% hits. AID 2326, 2010; active means well fitted rising curve with a large enough effect; inconclusive means small, poorly fitted or top-dose-only effect; inactive means no such curve, though single readings can be large or run the other way; also: nearly all actives have a fitted effect of over 50% in size
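Compounds were scored for reversing the slow growth caused by influenza A NS1 in S. cerevisiae, measured by optical density at 600 nm. Assay medium contained 2% galactose at pH 6.0; NS1-free yeast of the same strain were the positive control.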
SARS PLpro yeast = qHTS of Yeast-based Assay for SARS-CoV PLP. S. cerevisiae expressing SARS-CoV PLpro, growth rescue; control for the full effect not named in the record. Potency, µM (series often up to 32.9 µM), for the others: at the highest dose activity, positive = growth rescue. 330,000 compounds, 0.19% hits. AID 485353, 2010; active means well fitted rising curve with a large enough effect; inconclusive means small, poorly fitted or top-dose-only effect; inactive means no such curve, though single readings can be large or run the other way; also: 0% is about no effect; nearly all actives have a fitted effect of over 55% in size; growth read by luminescence after 48 h
Cruzain inh noDet = qHTS Assay for Promiscuous and Specific Inhibitors of Cruzain (without detergent); Potency, µM, without a hit: max response, negative = inhibition, usual class: inhibitors; Cruzipain (Trypanosoma cruzi), P25779; 200,000 compounds, 2.3% hits; purified cruzain, Z-FR-AMC fluorescence, no detergent;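 also: plate controls were enzyme without inhibitor for no effect and buffer without enzyme for full effect; nearly all actives have a fitted effect of over 40% in size; top concentration of the series not given in the record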
Target sequence (P25779 123-467 limits assumed): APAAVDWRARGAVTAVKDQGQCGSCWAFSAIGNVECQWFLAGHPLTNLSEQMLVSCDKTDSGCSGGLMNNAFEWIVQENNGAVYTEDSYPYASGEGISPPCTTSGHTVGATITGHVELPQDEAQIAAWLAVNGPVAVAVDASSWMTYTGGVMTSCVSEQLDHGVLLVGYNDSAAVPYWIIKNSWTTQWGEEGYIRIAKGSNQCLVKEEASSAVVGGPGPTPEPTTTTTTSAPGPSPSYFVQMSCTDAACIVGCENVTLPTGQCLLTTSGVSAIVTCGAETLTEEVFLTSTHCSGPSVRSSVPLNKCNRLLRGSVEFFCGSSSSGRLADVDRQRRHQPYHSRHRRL
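Purified cruzain at 1.5 nM, pre-incubated 15 min with compound at room temperature in 100 mM sodium acetate pH 5.5, 5 mM DTT, 0.00005% Triton X-100. Reaction started with 2 uM Z-FR-AMC; AMC fluorescence increase over 60 s gives rate.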
RE007 growth inh = qHTS Assay for Inhibitors of the HIV-1 protein Vpr | S. pombe RE007 Vpr strain, BacTiter-Glo ATP luminescence, 24 h; control for the full effect not named in the record | Potency, µM (top dose mostly 92.2 µM), for the others: at the top dose activity change, negative = less growth | 360,000 compounds, 0.21% hits | AID 651644, 2012; active = well fitted falling curve with a large enough effect; inconclusive = small, poorly fitted or top-dose-only effect; inactive = no such curve, though single readings can be large or run the other way;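 also: % is scaled to controls: 0 for no effect and ±100 for the full control effect; nearly all actives have a fitted effect of over 50% in size; the assay follows cell death caused by Vpr and the record does not say whether a fall means rescue or toxicity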
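Fission yeast RE007 carrying one integrated HIV-1 vpr copy, seeded at OD 0.01 in PMG+AL medium with 23 nL pinned compound. Grown 24 h at 30 degrees; viability read by BacTiter-Glo luminescence after 5 min.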
Cruzain Triton = qHTS Assay for Promiscuous and Specific Inhibitors of Cruzain (with detergent). 200,000 compounds, 0.43% hits. Potency, µM, without a hit: max response, negative = inhibition, usual class: inhibitors. purified cruzain, Z-FR-AMC fluorescence, 0.01% Triton. Cruzipain (Trypanosoma cruzi), P25779;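 also: plate controls were neutral wells for no effect and buffer without enzyme for full effect; nearly all actives have a fitted effect of over 40% in size; top concentration of the series not given in the record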
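Detergent-containing arm of a paired screen for aggregation-based inhibition: 0.01% Triton X-100 present. Cruzain at 1.5 nM cleaved 2 uM Z-FR-AMC at pH 5.5 with 5 mM DTT; AMC fluorescence gain over 60 s measured activity.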
StopGo reporter = High Throughput Screening for Foot and Mouth Disease Virus Antivirals; human cells with a luciferase reporter of 2A StopGo recoding; control for the full effect not named in the record; Potency, µM (titrated, usually from 57.9 µM), for inactives: top-dose signal change, negative = less light; 410,000 compounds, 1.2% hits; AID 1159524, 2015; active = well fitted falling curve with a large enough effect; inconclusive = small, poorly fitted or top-dose-only effect; inactive = no such curve, though single readings can be large or run the other way; tested in HEK293T cells; also: % is scaled to controls: 0 for no effect and ±100 for the full control effect; nearly all actives have a fitted effect of over 45% in size; luciferase light after 4 h
Marburg entry inh = qHTS for inhibitors of binding or entry into cells for Marburg Virus; Potency, µM (titrated, usually from 37.8 µM), for the others: at the highest dose activity change, negative = inhibition, hits mostly inhibitors; AID 540276, 2011; Marburg virus pseudotyped entry inhibition, cell reporter; control for the full effect not named in the record; about a third of the inactives were read at about 46 µM; 300,000 compounds, 1.8% hits; active = well fitted inhibition curve with a large enough effect; inconclusive = small, poorly fitted or top-dose-only effect, or effect the other way; inactive = flat fitted curve, though single readings scatter; tested in HEK293 cells; about a fifth of its hits are not listed in these tables; also: % is scaled to controls: 0 for no effect and ±100 for the full control effect; luciferase read-out
Starred values were filed as active, the others as inactive; ? = inconclusive; · = not tested or not shown; & = joins results of further samples; [ ] = dose if it differs, or a comment. Unless noted, calls follow the shape of the dose curve; as a rule, active = well fitted curve in the direction sought with a large enough effect; inconclusive = small, poorly fitted or top-dose-only effect, or another doubt; inactive = no such curve, though single readings can be large; an effect the other way counts as inactive or inconclusive. Potency is read from the fitted curve at half-maximal effect. This is a random part of the collection; 4.8% or so of the library scored in one or more.

SMILES | Lassa entry inh | NS1 function inh | SARS PLpro yeast | Cruzain inh noDet | RE007 growth inh | Cruzain Triton | StopGo reporter | Marburg entry inh
CCOc1ccc(/C=C/c2nc(C#N)c(N3CCCCCC3)o2)cc1 | 24%[46.1 µM] | · | · | -21% | · | -2.6% | -20% | 13%[46.1 µM]
O=C(Nc1ccc(Cl)cc1)c1cc(S(=O)(=O)NC2CCCCCC2)ccc1F | ? | · | · | -2% | · | 0.4% | 1% | ·
CC(C)N1CC(COc2ccc(Cl)cc2Cl)OC1=O (stereo not given) | · | 0% | -2% | · | 19% | · | 16% | ·
CCCC(CCC)C(=O)Nc1cccc(-c2cn3c(n2)SCC3)c1 | · | 13% | -6% | · | 3% | · | -8% | ·
O=C(Cn1c(=O)nc(-c2ccccc2)c2cc(Cl)ccc21)NCc1ccc(Cl)cc1 | -23%[46.1 µM] | · | · | -2% | · | -2.3% | -24% | ?
CC12CCC(C(N)C1=O)C2(C)C (stereo not given) | -22% | · | · | · | 0% | · | -15% | -1%
CCOCCCNC(=O)C(c1ccc(C)cc1)N(Cc1cccs1)C(=O)c1ccccc1O (stereo not given) | 11µM* | · | -4% | · | 6% | · | 54%[activator] | ?
Cc1ccc(CCNC(=O)c2ccc3c(c2)N(Cc2ccccc2)C(=O)c2ccccc2S3=O)cc1 (stereo not given) | -11%[46.1 µM] | · | · | 8% | · | 3.4% | -25% | -1%[46.1 µM]
Cc1ccc(-c2nn(-c3ccccc3)cc2C2SCC(=O)N2Cc2ccccc2)o1 (stereo not given) | · | -50% | -15% | 2% | 2% | -9.9% | ? | 7%
Cc1ccc2nc(NC(=O)CN3CCN(c4ccccn4)CC3)sc2c1 | -24%[46.1 µM] | 1% | 1% | · | -9% | · | -22% | 1%[46.1 µM]
O=C(Cn1c(=O)n(Cc2cccs2)c(=O)c2cccnc21)Nc1ccccc1F | · | · | · | -10% | · | -0.3% | 9% | 3%[46.1 µM]
COc1cc(C(=O)NCCOc2ccccc2C)c(Br)c(OC)c1OC | 2% | -11% | -2% | 0% | 22% | 2.2% | -22% | 39%
C/C(=N\NC(=O)c1ccc(CSc2nncn2C)cc1)c1ccc2ccccc2c1 | 27% | -4% | ? | ? | 17% | -3.0% | -2% | -38%
Nc1nonc1-n1nnc(C(=O)N/N=C/c2ccc(OCc3ccccc3F)cc2)c1CNc1ccccc1 | · | -24% | -3% | · | -8% | · | -10% | ·
Cc1ccc(NS(=O)(=O)c2ccc3oc(=O)ccc3c2)cc1Cl | · | -43% | ? | · | 1% | · | 19% | ·
CC1(C)CC(=O)C2=C(C1)N(c1ccc(F)cc1)C(N)=C(C#N)C2c1cccs1 (stereo not given) | ? | ? | -3% | -26% | -15% | 0.8% | -6% | -15%
CN(CCO)S(=O)(=O)c1ccc2c(c1)C(=O)c1cc(S(=O)(=O)N(C)CCO)ccc1-2 | · | -1% | -3% | · | 0% | · | -16% | ·
Cc1ccc(NC(=O)CCS(=O)(=O)c2cc3[nH]c(=O)c(=O)[nH]c3cc2C)cc1 | 18%[46.1 µM] | 1% | 0% | · | 1% | · | -17% | 24%[46.1 µM]
COc1ccc(N(Cc2nnc3n2CCCCC3)C(=O)Nc2cccc(C)c2)cc1Cl | -19%[46.1 µM] | · | · | 27% | · | 4.3% | 9% | ·
CCn1cc(C(=O)NCc2ccccc2)c(=O)c2cc(F)c(N3CCN(C(=O)c4ccco4)CC3)cc21 | ? | 10% | 8% | ? | -3% | 1.1% | 20µM* | ?
O=C(NCc1cccs1)C1CCC(CNS(=O)(=O)c2ccccc2)CC1 (stereo not given) | -11% | · | 0% | · | -6% | · | -19% | 0%[46.1 µM]
CC(=O)c1ccc2c(c1)OCCOCCOCCOCCO2 | · | -2% | -1% | · | -4% | · | -4% | ·
CCSc1nnc(NC(=O)c2nn(C(C)C)c(=O)c3ccccc23)s1 | -1% | -41% | -8% | ? | -9% | -3.4% | -12% | 1%
N#Cc1cc2c(nc1SCc1cccnc1)CCC2 | -9% | -42% | -5% | -1% | 2% | 0.6% | -1% | 1%[46.1 µM]
Clc1ccc(-c2nnc(SCc3nc(-c4ccccc4)no3)o2)cc1 | · | -8% | -7% | -8% | 2% | -1.6% | -18% | ·
COc1ccc(-c2cn(-c3ccc(Br)cc3)c3[n+]2CCS3)cc1 | -5% | 1% | -3% | -4% | -24% | -1.9% | ? | -25%
Cc1cccc(N(C(=O)CCC(=O)Nc2cc(C)on2)C(C(=O)NC2CCCC2)c2ccc(C)o2)c1 (stereo not given) | · | 0% | 1% | · | -1% | · | 32%[activator] | ·
Cc1nc(C(=O)NNC(=O)c2cccc(Cl)c2)c(C(F)(F)F)o1 | -23% | 1% | -1% | · | 9% | · | -6% | -1%[14.2 µM]
Cc1ccc(OCc2cc(C(=O)NCC(C)c3ccccc3)no2)cc1C (stereo not given) | -3% | -5% | -2% | · | -23% | · | -24% | -16%
Cc1cc(C)c(NC(=O)Nc2sc3nc4n(c(=O)c3c2C)CCC(C)CC4)c(C)c1 (stereo not given) | · | · | · | -11% | · | -2.0% | -9% | 19%[46.1 µM]
Cc1cc(N/N=C/c2ccccc2[N+](=O)[O-])nc(-n2nc(C)cc2C)n1 | ? | -4% | -3% | · | -10% | · | ? | ?
Cc1nc(-c2ccccc2)sc1-c1ccc(SCC(=O)Nc2ccccc2)nn1 | ? | · | · | 20% | · | -2.9% | 22% | ·
Cc1cc(Cl)ccc1NC(=S)N1CCN(Cc2ccc3c(c2)OCO3)CC1 | ? | ? | -31% | -8% | ? | -2.3% | -7% | -17%
C/C(=N\n1c(C)cc(C)c(C#N)c1=O)c1cccs1 | -1% | -6% | 6% | -24% | 2% | -9.2% | -7% | 8%
O=C(O)/C=C/c1coc2ccccc2c1=O | 8% | -6% | 25% | 0% | -2% | -3.5% | -21% | 1%
CSc1ccc(Cl)c(C(=O)NNC(=O)c2csc(N3CCOCC3)n2)c1 | -1% | · | -3% | · | -4% | · | -14% | -20%[46.1 µM]
C/C(=N\NS(=O)(=O)c1ccc(C)cc1)c1ccc(C)s1 | 15% | 8% | -5% | 2% | 12%[3.69 µM] | -6.7% | 42%[activator] | -6%
CCOc1ccc(C(C)=O)cc1Cc1c(O)[nH]c(=S)[nH]c1=O | · | 27% | 11% | · | 2% | · | -15% | ·
Cc1nc2c(C)cccn2c(=O)c1NC(=O)COc1ccccc1 | -4% | · | -1% | · | 0% | · | -2% | -3%
CC(=O)c1c(C)[nH]c(C(=O)NNC(=O)COc2ccc(Cl)cc2C)c1C | -18% | · | 5% | · | -3% | · | -8% | 1%[46.1 µM]
Cc1ccc(SCc2nc(-c3ccc(C(=O)Nc4cc(C)ccc4C)cc3)oc2C)cc1 | ? | · | · | 7% | · | 4.6% | 0% | ·
CCOC(=O)C1CCCN(C(=O)c2cn(CC)c3ccc(S(=O)(=O)N(C)C)cc3c2=O)C1 (stereo not given) | · | 5% | -2% | -11% | -6% | -2.7% | -7% | ·
CC(C)CC(NC(=O)c1ccc(Cl)cc1Cl)C(=O)O (stereo not given) | ? | 7% | 3% | -5% | 18% | 4.7% | 14% | 30%
CC(=O)N1CCc2nc3sc(C(=O)Nc4ccc(Cl)cc4F)c(N)c3c(C(F)(F)F)c2C1 | 25%[46.1 µM] | · | · | -9% | · | 1.1% | -11% | -27%[46.1 µM]
O=C(CNC(=O)c1ccc2c(c1)S(=O)(=O)N=C1CCCCCN12)Nc1ccc(F)c(F)c1 | -27%[46.1 µM] | · | -9% | · | -24% | · | -6% | 9%
Cc1ccc(NS(=O)(=O)c2cccc(C(=O)OCC(=O)NCc3ccco3)c2)cc1 | 1% | -12% | 8% | -8% | -11% | -3.9% | 20% | -2%
O=C1COc2ccccc2N1Cc1ccccc1Cl | -3% | -6% | 24% | -11% | -8% | -3.0% | -18% | 7%
COc1ccc(NC(=O)c2nnn(Cc3nc(-c4cc(OC)c(OC)c(OC)c4)oc3C)c2C)cc1 | -29%[46.1 µM] | · | · | 5% | · | -0.9% | -16% | -1%[46.1 µM]
CCOC(=O)C1CN(S(=O)(=O)c2ccc(C)cc2)CCN1S(=O)(=O)c1ccc(C)cc1 (stereo not given) | ? | -61% | -1% | 7% | 14% | -2.9% | · | -15%
CCN(CC(=O)NCc1cccs1)C(=O)c1cc(S(=O)(=O)N2CCOCC2)ccc1C | -3% | -5% | 30% | 5% | -3% | 2.4% | -15% | 0%&3%
Cc1c(Cl)cccc1NC(=O)CCn1nc(C)c2c(C)n(-c3ccccc3)nc2c1=O | -3%[46.1 µM] | · | · | 9% | · | -2.9% | -14% | ·
Nc1ccnn1Cc1ccc(Br)s1 | ? | 13% | 18% | 11% | -17% | -1.8% | -14% | ?
CCOC(=O)c1nnc(-c2ccccc2)nc1Sc1c(Cl)cccc1Cl | ? | -3% | -10% | -23% | -7% | -1.9% | ? | ?
COc1ccc(NS(=O)(=O)c2ccc3oc(=O)c4[nH]c(=O)c(=O)n(C)c4c3c2)cc1 | · | -5% | -1% | · | 4% | · | -6% | ·
COc1cc(S(=O)(=O)Nc2ccc(C)cc2)ccc1NC(=O)c1ccncc1 | 2% | -1% | 24% | 2% | 10% | -4.3% | 35%[activator] | ?
CCCOc1ccc(N2CC(C(=O)Nc3ccccn3)CC2=O)cc1 (stereo not given) | -1% | -6% | -5% | -3% | 15% | 1.6% | -15% | 21%
COc1ccc(OC)c(S(=O)(=O)N(C)CC(=O)N2CCOCC2)c1 | · | -3% | -1% | · | -7% | · | 4% | ·
